UUG fidelity = alters start codon recognition fidelity in yeast; S. cerevisiae UUG-firefly luciferase reporter, luminescence/redox ratio; activity score, % at 18.7 µM; hit rate 0.13% among 350,000;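 active means replicate mean at a twofold rise or more, about +100% in these data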;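 further: firefly luciferase made from a UUG start codon reports start codon fidelity; reporter light over untreated wells divided by growth signal over untreated wells; some hits fall short of that in this replicate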
Rce1 inhib = yeast Ras-converting enzyme inhibition; Q03530; calls only; yeast membranes, quenched prenylated peptide cleavage fluorescence; AID 2563; hit rate 0.27% among 290,000;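 active means fall in fluorescence gain of 50% or more versus controls, with final raw signal at or below 3038400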;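 further: plate controls were neutral control wells for no effect and wells lacking membranes for full effect; tested at 10 µM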
Target sequence (Q03530 whole entry, looked up): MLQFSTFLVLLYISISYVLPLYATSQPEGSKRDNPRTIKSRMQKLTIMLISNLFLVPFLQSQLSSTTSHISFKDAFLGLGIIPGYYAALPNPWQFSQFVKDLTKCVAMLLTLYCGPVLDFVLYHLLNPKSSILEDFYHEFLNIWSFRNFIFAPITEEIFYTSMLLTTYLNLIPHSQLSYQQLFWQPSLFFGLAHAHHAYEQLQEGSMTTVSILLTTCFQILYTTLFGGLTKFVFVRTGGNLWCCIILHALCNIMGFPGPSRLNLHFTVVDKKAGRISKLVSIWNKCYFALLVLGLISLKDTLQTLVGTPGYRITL
PABP FP inh = blocks human PABP binding to poly(A) RNA | fluorescence polarization | inhibition, % at 35 µM | hit rate 1% among 290,000 | AID 2014;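 active means 50% or more with normal probe brightness, or confirmed in later tests; about a fifth of its hits are not listed in these tables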;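 further: calls also rest on retests at 20 µM and on dose response follow-up; controls were probe without protein and protein plus probe with vehicle; some compounds called inactive have numbers as strong as hits; many hits fall short of the cut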
Target sequence (P11940 whole entry, looked up): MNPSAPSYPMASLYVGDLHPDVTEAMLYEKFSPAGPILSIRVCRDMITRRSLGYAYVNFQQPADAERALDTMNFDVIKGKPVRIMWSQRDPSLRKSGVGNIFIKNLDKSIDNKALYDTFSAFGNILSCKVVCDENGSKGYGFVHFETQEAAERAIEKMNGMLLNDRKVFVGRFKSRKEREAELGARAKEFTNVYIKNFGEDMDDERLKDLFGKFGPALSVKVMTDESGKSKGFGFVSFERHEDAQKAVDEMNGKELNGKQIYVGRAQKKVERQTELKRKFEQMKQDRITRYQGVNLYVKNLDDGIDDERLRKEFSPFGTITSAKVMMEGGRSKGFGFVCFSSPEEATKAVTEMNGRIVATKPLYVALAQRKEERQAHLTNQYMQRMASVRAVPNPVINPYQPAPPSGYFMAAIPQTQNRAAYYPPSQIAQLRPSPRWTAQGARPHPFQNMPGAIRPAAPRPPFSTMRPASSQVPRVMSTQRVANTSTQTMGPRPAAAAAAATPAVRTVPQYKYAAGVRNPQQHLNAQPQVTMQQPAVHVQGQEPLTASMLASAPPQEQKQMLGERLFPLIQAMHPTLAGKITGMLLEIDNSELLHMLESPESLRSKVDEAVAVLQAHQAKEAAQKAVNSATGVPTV
MT1-MMP act inh = MT1-MMP (human) activation inhibition | HT1080 RFP-PRO-GFP cells, GFP/RFP ratio fluorescence, overnight; percent of plate control window, DMSO zero | P50281 | GFP/RFP ratio change, % at 20 µM | hit rate 0.061% among 360,000;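 active means GFP/RFP ratio change of at least 30% with cell ATP level not reduced by more than half and red fluorescence within 50% of control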; further: strong numbers were not always called active
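Assay system: HT1080 RFP-PRO-GFP cells. Benchmarks: DMSO vehicle wells and RFP-L50D-GFP reporter cell wells. Times: overnight cell settling, then overnight compound exposure, 37 °C, 5% CO2. Compound: 20 µM single dose, 1% DMSO. Read-out basis: GFP/RFP fluorescence ratio.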
CSC inhib = blocks cancer stem cells. cancer stem cell-like cells viability, luminescence. inhibition, % at 7.5 µM. hit rate 1.1% among 300,000. AID 2717;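 active means mean at 75% or more and at least half the replicates too; tested in HMLE shEcad cells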;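 further: 0% = median of negative and 100% = median of positive control wells; the first replicate is given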
HIV Env fusion = HIV envelope-mediated fusion inhibition. HeLa-JRFL Env/CEM21 cell fusion, luciferase. inhibition, % at 12.3 µM. hit rate 1.1% among 360,000. AID 651610;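 active means mean replicate inhibition score of at least 50 and every replicate individually at or above 50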;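 further: 0% = plate neutral controls and 100% = maraviroc near 300 nM; one replicate is shown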
eIF4H inh = inhibitors of RNA binding by human eIF4H; Q15056; hit rate 0.94% among 290,000; inhibition, % at 35 µM; eIF4H fluorescence polarization binding assay;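 active means 50% or more with normal probe brightness, or confirmed in later tests; about a fifth of its hits are not listed in these tables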;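 further: calls also rest on retests at 20 µM and on dose response follow-up; 0% = protein and probe with vehicle and 100% = probe without protein; strong numbers were not always called active; many hits fall short of the cut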
MT1-MMP act inh RFP = further read-out of MT1-MMP act inh, marked with its call; RFP signal change, %; measured here: RFP expression control read;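 0 = vehicle wells; hits needed this value within 50% of zero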
* hit, by the source's call; & = joins results of further samples. Hits appear at their usual frequency; about 3% have a hit in one of these screens.

`O=C(NCc1ccc(OC(F)(F)F)cc1)C1CC(c2cccc(F)c2)=NO1` (configuration not stated) gave UUG fidelity -22, Rce1 inhib inactive, PABP FP inh -2, MT1-MMP act inh 4, CSC inhib 61, HIV Env fusion 3, eIF4H inh 5 and MT1-MMP act inh RFP 1.
COC(=O)c1nnn(-c2nonc2N)c1-c1cccs1 was read as UUG fidelity -9, Rce1 inhib inactive, PABP FP inh 0, MT1-MMP act inh 0, CSC inhib -2, HIV Env fusion -61, eIF4H inh 2 and MT1-MMP act inh RFP 0.
`O=C(OCC(=O)c1ccc[nH]1)c1ccc(F)c(S(=O)(=O)N2CCOCC2)c1` gave UUG fidelity 6, MT1-MMP act inh 1, CSC inhib -1 and MT1-MMP act inh RFP 0.
Screening Cc1ccc(C)c(NC(=O)C(Sc2ncnc3ccccc23)c2ccccc2)c1 (configuration not stated) returned UUG fidelity 0, Rce1 inhib inactive, PABP FP inh 8, MT1-MMP act inh -4, CSC inhib 4, eIF4H inh 7 and MT1-MMP act inh RFP -4.
Screening CC(C)C(OC(=O)c1ccc(Cl)nc1)C(=O)NC1CCCCC1 (configuration not stated) returned UUG fidelity -22, Rce1 inhib inactive, PABP FP inh 12, MT1-MMP act inh -1, CSC inhib 17, HIV Env fusion -5, eIF4H inh -9 and MT1-MMP act inh RFP 0.
Screening Cc1ccc(CCNC(=O)C2CCN(c3nn4c(=O)cc(C)nc4s3)CC2)cc1 returned UUG fidelity -14, Rce1 inhib inactive, PABP FP inh -7, MT1-MMP act inh -2, CSC inhib -2, eIF4H inh -11 and MT1-MMP act inh RFP -2.
Screening CC(=O)Oc1cc(C(C)C)c(OCCN(C)C)cc1C returned UUG fidelity -15, Rce1 inhib inactive, PABP FP inh -4, MT1-MMP act inh -7, CSC inhib 4, HIV Env fusion 0, eIF4H inh -9 and MT1-MMP act inh RFP -3.
`C=CCN=C1S/C(=C\N(C)C)C(=O)N1S(=O)(=O)c1ccc(C)cc1` gave UUG fidelity -14, MT1-MMP act inh 0, CSC inhib 11 and MT1-MMP act inh RFP -8.
Cn1ccc2cc(OCc3ccccc3)ccc21 was read as UUG fidelity -24, MT1-MMP act inh 0, HIV Env fusion -106 and MT1-MMP act inh RFP 3.
For Nc1cc(=O)[nH]c(SCC(=O)N2CCN(S(=O)(=O)c3ccc4ccccc4c3)CC2)n1 the results were Rce1 inhib inactive, PABP FP inh -4, MT1-MMP act inh 1, CSC inhib 0, HIV Env fusion 3, eIF4H inh -1 and MT1-MMP act inh RFP 4.
For CCOc1ccc(NC(=O)CNc2cccc(S(=O)(=O)N3CCCCCC3)c2)cc1OCC the results were UUG fidelity -8, MT1-MMP act inh -4, CSC inhib -2, HIV Env fusion 32 and MT1-MMP act inh RFP -26.
O=C(OCc1cccc([N+](=O)[O-])c1)c1cc2ccccc2oc1=O was read as UUG fidelity -17, Rce1 inhib inactive, PABP FP inh -1, MT1-MMP act inh -1, CSC inhib -12, HIV Env fusion 16, eIF4H inh -5 and MT1-MMP act inh RFP -1.
Screening CCN(CC(=O)Nc1ccc(NC(C)=O)cc1)C(=O)c1ccc(N2C(=O)c3ccccc3C2=O)cc1 returned UUG fidelity -5, MT1-MMP act inh -2, HIV Env fusion 11 and MT1-MMP act inh RFP -3.
For CC1CC(C)CN(CC(=O)N2CCc3[nH]c4ccccc4c3C2)C1 (configuration not stated) the results were UUG fidelity -20, Rce1 inhib inactive, PABP FP inh 106*, MT1-MMP act inh 5, CSC inhib 7, eIF4H inh 126* and MT1-MMP act inh RFP 9.
Screening COc1ccc(C)cc1NC(=O)c1cnc2n(c1=O)CCS2 returned UUG fidelity -12, Rce1 inhib inactive, PABP FP inh 5, MT1-MMP act inh 3, CSC inhib -9, HIV Env fusion -93, eIF4H inh -4 and MT1-MMP act inh RFP -4.
Screening Cc1cc(-c2n[nH]c(=S)n2/N=C/c2sccc2C)n[nH]1 returned Rce1 inhib inactive, PABP FP inh -7, MT1-MMP act inh 1, eIF4H inh 3 and MT1-MMP act inh RFP 6.
For COc1ccc(N(C)C(=O)Cc2c(C(=O)O)n(C)c3ccccc23)c(OC)c1 the results were UUG fidelity -11, Rce1 inhib inactive, PABP FP inh 15, MT1-MMP act inh 1, CSC inhib -18, HIV Env fusion 3, eIF4H inh -13 and MT1-MMP act inh RFP 3.
For CC(C)CC1CCCC12NC(=O)NC2=O (configuration not stated) the results were UUG fidelity -16, MT1-MMP act inh -1, HIV Env fusion 2 and MT1-MMP act inh RFP -2.
Screening Cc1ccc(-c2cc(C(=O)NN=C3CCCC3)c3ccccc3n2)cc1 returned UUG fidelity -24, Rce1 inhib inactive, PABP FP inh 0, MT1-MMP act inh -9, CSC inhib -12, HIV Env fusion -20, eIF4H inh -9 and MT1-MMP act inh RFP 0.
`C[C@H](CO)N1C[C@H](C)[C@@H](CN(C)Cc2ccncc2)OCc2cnnn2CCCC1=O` gave UUG fidelity -2&-12&-6, MT1-MMP act inh -3, HIV Env fusion -1 and MT1-MMP act inh RFP 1.
Screening COc1ccc(N2C(=O)C(CC(=O)O)S/C2=N\N=C\c2cccs2)cc1 (configuration not stated) returned Rce1 inhib inactive, PABP FP inh 10, MT1-MMP act inh 2, CSC inhib 10, HIV Env fusion 4, eIF4H inh 4 and MT1-MMP act inh RFP 0.
`CCOc1ccccc1N=Cc1c(O)c2ccccc2oc1=O` gave UUG fidelity -3, Rce1 inhib inactive, PABP FP inh 15, MT1-MMP act inh -13, CSC inhib -18, HIV Env fusion -1, eIF4H inh 2 and MT1-MMP act inh RFP -4.
Screening CCOC(=O)Cn1ncc(-c2ccccc2)c1N returned UUG fidelity -17, PABP FP inh -6, MT1-MMP act inh 3, CSC inhib -3, HIV Env fusion -97, eIF4H inh 2 and MT1-MMP act inh RFP 1.
COc1cc2c(cc1OC)CN(C(=O)CSc1n[nH]c(N)n1)CC2 was read as UUG fidelity -16, Rce1 inhib inactive, PABP FP inh 12, MT1-MMP act inh -2, CSC inhib -1, eIF4H inh -2 and MT1-MMP act inh RFP 7.
For CC(C)[C@H](NS(=O)(=O)c1cccc(Cl)c1)C(=O)OCC(=O)N1CCN(c2ccccc2)CC1 the results were UUG fidelity 1, Rce1 inhib inactive, PABP FP inh 3, MT1-MMP act inh -1, CSC inhib -11, HIV Env fusion -20, eIF4H inh 6 and MT1-MMP act inh RFP -2.
Screening Cc1cc(NC(=O)c2noc3c2CCCC3)n(-c2ccccc2)n1 returned UUG fidelity -10, Rce1 inhib inactive, PABP FP inh -2, MT1-MMP act inh -4, CSC inhib 5, HIV Env fusion 5, eIF4H inh -2 and MT1-MMP act inh RFP 3.
Screening COc1cccc(CNC(=O)CCC2CCCN(c3cc(C)nc(N)n3)C2)c1 (configuration not stated) returned Rce1 inhib inactive, PABP FP inh -2, MT1-MMP act inh 0, CSC inhib -11, HIV Env fusion 32, eIF4H inh -4 and MT1-MMP act inh RFP 7.
For O=c1nc2n(c3sc4c(c13)CCCC4)C(CBr)CS2 (configuration not stated) the results were UUG fidelity -14, Rce1 inhib inactive, PABP FP inh 2, MT1-MMP act inh 0, CSC inhib -4, eIF4H inh -11 and MT1-MMP act inh RFP 4.
`COc1ccc(OC)c(C(=O)CSc2nnc(Cc3cccs3)n2CCc2ccccc2)c1` gave UUG fidelity -20, Rce1 inhib inactive, PABP FP inh 2, MT1-MMP act inh -2, CSC inhib 10, eIF4H inh 1 and MT1-MMP act inh RFP -10.
CCOC(=O)C1(CCOc2ccccc2)CCN(Cc2cnc(C)s2)CC1 was read as Rce1 inhib inactive, PABP FP inh 3, MT1-MMP act inh 1, CSC inhib 26, HIV Env fusion -16, eIF4H inh -10 and MT1-MMP act inh RFP -5.
Screening Cn1nc(C(=O)NCCN2CCOCC2)c2ccccc2c1=O returned UUG fidelity -27, Rce1 inhib inactive, PABP FP inh -1, MT1-MMP act inh 0, CSC inhib -19, HIV Env fusion -21, eIF4H inh -13 and MT1-MMP act inh RFP 3.
For COc1ccc2cc(CCOC3CCCCO3)ncc2c1 (configuration not stated) the results were UUG fidelity -25, MT1-MMP act inh 3, CSC inhib 17, HIV Env fusion 9 and MT1-MMP act inh RFP 1.
For C=CCOC(=O)C1=C(C)NC(SC)=C(C#N)C1c1cccs1 (configuration not stated) the results were UUG fidelity -19, Rce1 inhib inactive, PABP FP inh 9, MT1-MMP act inh -9, CSC inhib 44, eIF4H inh 3 and MT1-MMP act inh RFP -14.
For Cc1ccc(S(=O)(=O)N2CCc3c2cc([N+](=O)[O-])cc3[N+](=O)[O-])cc1 the results were UUG fidelity 66, Rce1 inhib inactive, PABP FP inh -3, MT1-MMP act inh 3, CSC inhib 21, HIV Env fusion 15, eIF4H inh -10 and MT1-MMP act inh RFP -6.
c1nc2nc3c(c(N4CCOCC4)n2n1)CCCC3 was read as UUG fidelity -12, Rce1 inhib inactive, PABP FP inh 6, MT1-MMP act inh 0, CSC inhib 2, HIV Env fusion -22, eIF4H inh -3 and MT1-MMP act inh RFP -2.
For COc1ccc(NC(=O)CN(c2cc(C)cc(C)c2)S(=O)(=O)c2c(C)noc2C)cc1OC the results were UUG fidelity -4, Rce1 inhib inactive, PABP FP inh -16, MT1-MMP act inh -1, CSC inhib 31, HIV Env fusion 9, eIF4H inh -16 and MT1-MMP act inh RFP 8.
Screening Cc1ccc(NC(=O)COC(=O)CNC(=O)c2cccc([N+](=O)[O-])c2)cc1S(=O)(=O)N1CCCCCC1 returned Rce1 inhib inactive, PABP FP inh 10, MT1-MMP act inh 2, HIV Env fusion 4, eIF4H inh -7 and MT1-MMP act inh RFP 1.
For Cc1cccc(OCC(=O)NCCNC(=O)c2ccccn2)c1 the results were UUG fidelity -12, Rce1 inhib inactive, PABP FP inh -14, MT1-MMP act inh 0, HIV Env fusion -3, eIF4H inh -8 and MT1-MMP act inh RFP 1.
`COc1ccc(NC(=O)CSc2nnc(Cc3cccn3C)n2-c2ccc(F)cc2)cc1` gave UUG fidelity -13, Rce1 inhib inactive, PABP FP inh -7, MT1-MMP act inh 1, CSC inhib -20, HIV Env fusion -7, eIF4H inh -14 and MT1-MMP act inh RFP 2.

Filtered by structure, the compounds so far with a thiophene ring, fused or not (six)
COC(=O)c1nnn(-c2nonc2N)c1-c1cccs1 was read as UUG fidelity -9, Rce1 inhib inactive, PABP FP inh 0, MT1-MMP act inh 0, CSC inhib -2, HIV Env fusion -61, eIF4H inh 2 and MT1-MMP act inh RFP 0.
Screening Cc1cc(-c2n[nH]c(=S)n2/N=C/c2sccc2C)n[nH]1 returned Rce1 inhib inactive, PABP FP inh -7, MT1-MMP act inh 1, eIF4H inh 3 and MT1-MMP act inh RFP 6.
Screening COc1ccc(N2C(=O)C(CC(=O)O)S/C2=N\N=C\c2cccs2)cc1 (configuration not stated) returned Rce1 inhib inactive, PABP FP inh 10, MT1-MMP act inh 2, CSC inhib 10, HIV Env fusion 4, eIF4H inh 4 and MT1-MMP act inh RFP 0.
For O=c1nc2n(c3sc4c(c13)CCCC4)C(CBr)CS2 (configuration not stated) the results were UUG fidelity -14, Rce1 inhib inactive, PABP FP inh 2, MT1-MMP act inh 0, CSC inhib -4, eIF4H inh -11 and MT1-MMP act inh RFP 4.
`COc1ccc(OC)c(C(=O)CSc2nnc(Cc3cccs3)n2CCc2ccccc2)c1` gave UUG fidelity -20, Rce1 inhib inactive, PABP FP inh 2, MT1-MMP act inh -2, CSC inhib 10, eIF4H inh 1 and MT1-MMP act inh RFP -10.
For C=CCOC(=O)C1=C(C)NC(SC)=C(C#N)C1c1cccs1 (configuration not stated) the results were UUG fidelity -19, Rce1 inhib inactive, PABP FP inh 9, MT1-MMP act inh -9, CSC inhib 44, eIF4H inh 3 and MT1-MMP act inh RFP -14.

Screening data deposited in PubChem BioAssay by several laboratories.
